Assay outcomes: PubChem, several laboratories
Vif A3G – inhibitors of Vif binding to APOBEC3G peptide, primary screen, biochemical, TR-FRET, GST-Vif 1-94, biotin-A3G peptide, dose response retest (AID 1117319). 260,000 tested, 0.57% active. Virion infectivity factor (Human immunodeficiency virus type 1 group M subtype B (isolate …. TR-FRET GST-Vif / biotin-A3G peptide binding; higher % means a stronger effect; test concentration not given here; strong numbers were not always called active. inhibition, %; hits with a dose series show IC50 in µM;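 active = above the screen mean plus three standard deviations and confirmed in dose response; inconclusive = results disagree or hit not tested in dose response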;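 also: Vif residues 1-94 fused to GST binding biotinylated APOBEC3G peptide 110-148; 0% = full assay without inhibitor and 100% = GST in place of GST-Vif; retest series ran down from 100 µM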
Bfl-1 A1 inh – caspase 3/7 activation in MEF A1-2A-BIM cells, primary screen, A1 inhibitor project, cell-based, luminescence, HTS; caspase activation, % (test concentration not listed); AID 2462, 2010; Caspase-Glo 3/7 luminescence, 3 h; percent of clofoctol response, vehicle zero; 330,000 tested, 0.066% active;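 active = over half of replicate activation scores above 10%, or exactly half above 10 with the replicate mean above 10; inconclusive = replicate mean below 10 yet half the replicates above 10; inactive = over half of replicates below 10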;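 also: wells of about 30 µL received 50 nL stock; many hits fall short of the cut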
Beta apoptosis – inhibitors of cytokine-induced beta cell apoptosis, primary screen, luminescence; INS-1E cytokine-induced death, ATP luminescence, 48 h; percent of positive-control rescue, neutral wells zero; 300,000 tested, 0.8% active; protection from apoptosis, % (concentration not given with the values);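 active = all replicates at 75% or more, or half of them and the mean; inconclusive = half reach 75% but not the mean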;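 also: 0% = cytokine-treated negative control wells and 100% = positive control rescue; higher means more ATP so stronger rescue from cytokine killing; wells of about 40 µL received 100 nL stock; the first replicate is given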
MLL AF4-AF9 inh – inhibitors of AF4 peptide binding to AF9, primary screen, biochemical, AlphaScreen, biotin-AF4 peptide, FLAG-AF9, single point; Protein AF-9 (Homo sapiens), P42568; AID 651704, 2012; inhibition, % at 10 µM; 350,000 tested, 0.47% active;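 active = every replicate reaching a set inhibition limit, whatever the replicate mean, cut at about 25% in these data; inconclusive = mean inhibition reaches that limit but some replicates miss it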;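 also: 0% = plate neutral control median and 100% = total signal loss; the record names both 10 and 1 µM as test concentration; the first replicate is given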
Target sequence (P42568 whole entry, looked up): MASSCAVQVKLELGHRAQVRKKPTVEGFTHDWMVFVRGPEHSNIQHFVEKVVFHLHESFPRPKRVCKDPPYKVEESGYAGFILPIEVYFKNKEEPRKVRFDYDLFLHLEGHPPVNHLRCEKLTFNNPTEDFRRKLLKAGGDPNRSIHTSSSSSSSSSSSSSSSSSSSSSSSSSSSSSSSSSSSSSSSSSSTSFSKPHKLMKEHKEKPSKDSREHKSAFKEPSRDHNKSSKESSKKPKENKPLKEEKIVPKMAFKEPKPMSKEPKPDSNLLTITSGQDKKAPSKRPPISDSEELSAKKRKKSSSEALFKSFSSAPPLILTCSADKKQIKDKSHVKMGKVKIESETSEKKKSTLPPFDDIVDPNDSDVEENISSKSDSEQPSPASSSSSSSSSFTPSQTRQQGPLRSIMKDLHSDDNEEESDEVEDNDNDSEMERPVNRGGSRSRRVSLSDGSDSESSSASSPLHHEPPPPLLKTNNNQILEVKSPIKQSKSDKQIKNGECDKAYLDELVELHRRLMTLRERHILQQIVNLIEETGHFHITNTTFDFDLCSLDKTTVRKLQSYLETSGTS
T cruzi repl – inhibitors of intracellular T. cruzi growth, primary screen, luminescence, NIH3T3 host cells; T. cruzi beta-gal in NIH3T3, 90 h; inhibition, % (concentration not given with the values); 300,000 tested, 1.4% active; AID 1885, 2009;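 active = mean inhibition across valid replicates above about 55%, limit read from the data; inconclusive = mean below that limit but half or more replicates reach it; inactive = mean below it, under half of replicates reach it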;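 also: signal also drops with host cell toxicity which is not excluded here; 0% = plate median of DMSO wells and 100% = zero luminescence signal; higher percent means less beta-gal luminescence so fewer parasites; stock transfer was 50 nL into about 50 µL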
Calb FLC – C. albicans growth inhibition with fluconazole, primary screen, CaCi-2 strain, Alamar Blue fluorescence; C. albicans CaCi-2 (fluconazole-resistant clinical isolate) + fluconazole, 48 h; growth inhibition, % (test concentration not listed); 300,000 tested, 0.57% active;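 active = most replicates above 75%; inconclusive = exactly half above 75%; inactive = most below 75%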;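 also: all wells also contain fluconazole at 8 µg/ml as a sub-toxic cotreatment; 0% = median of DMSO wells and 100% = median of geldanamycin control wells; wells of about 8 µL received 7.5 nL stock; the first replicate is given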
RanGTP-Impb inh – inhibitors of RanGTP-importin-beta interaction, primary screen, biochemical, FRET, CFP-Ran, YFP-importin-beta, homogeneous. Ran GTPase (GTP-bound) - importin-beta complex. cell-free CFP-Ran/YFP-importin-beta FRET ratio. inhibition, % (no concentration beside the values). 300,000 tested, 1.1% active. AID 2216, 2009;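 active = most replicates above 15%; inconclusive = exactly half above 15%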;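 also: 0% = DMSO wells and 100% = Ran loaded with GDP instead of GTP; wells of about 40 µL received 100 nL stock; the first replicate is given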
rRNA inh HTS – reduced GFP signal of wild-type E. coli, primary screen, bacterial rRNA inhibitor project, GFP/RFP fluorescence, OD600, single point; AID 720706, 2013; GFP signal change (wild-type ribosome), % (no concentration beside the values); 350,000 tested, 1.6% active; E. coli WT GFP vs humanized-ribosome RFP mutants, 24 h; active compounds read low; DMSO median 0, no signal -100;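 active = significant combined selectivity score with lowered wild-type GFP, culture density cut under 30%, mutant RFP and density less affected; inactive = any of these conditions unmet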; also: one replicate is shown; some compounds called inactive have numbers as strong as hits
rRNA inh HTS OD600 – further read-out of rRNA inh HTS, marked with its call; OD600 change, %; measured here: OD600 growth;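 optical density of the mix in the first replicate; 0 = DMSO median and -100 = no signal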
rRNA inh HTS RFP – second read-out of rRNA inh HTS, no call of its own (marks repeat the call); RFP signal change, %; measured here: RFP humanized mutant strains;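 first replicate; 0 = DMSO median and -100 = no signal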
* = called active by the depositor; ? = inconclusive; · = no result given; & = joins results of further samples. This is a subset; rates above refer to the full screens.

entry | Compound | Bfl-1 A1 inh | Beta apoptosis | Calb FLC | rRNA inh HTS | rRNA inh HTS RFP | Vif A3G | RanGTP-Impb inh | MLL AF4-AF9 inh | T cruzi repl | rRNA inh HTS OD600
1 | COc1ccccc1NC(=O)Cn1cnc2sc(C(=O)Nc3ccc(OC)c(OC)c3)c(C)c2c1=O | -0.4 | -1 | 12 | 2 | -0.9 | 0% | -0.3 | 2.6 | -3 | 9
2 | O=C(COc1ccc(F)cc1Br)N1CCN(c2ncccn2)CC1 | -0.1 | 7 | 6 | -17 | -6.6 | · | -0.7 | -1.1 | -2 | -24
3 | CSc1nc2c(c(=O)n1-c1ccc(C)cc1)SCC2 | 0.2 | -7 | -4 | · | · | -6% | -3.9 | · | -6 | ·
4 | Cc1ccc(N2C(=O)N(CC(=O)Nc3cc(Cl)ccc3C)C(=O)C2C)cc1 (stereo not given) | 0.5 | -2 | 0 | -5 | -2.0 | -1% | 2.7 | 0.6 | -17 | -21
5 | C=CCSc1nc2c(cc1C#N)CCC2 | 1.3 | -5 | 35 | · | · | 0% | 5.1 | · | -1 | ·
6 | COc1ccc(C2CC23N=C(c2ccccc2)OC3=O)cc1 (stereo not given) | 0.0 | -11 | 18 | · | · | · | 2.2 | -5.0 | -16 | ·
7 | Cc1cccc2cc(CN(Cc3nnnn3Cc3ccccc3)C3CCCC3)c(=O)[nH]c12 | 1.0 | -5 | 36 | · | · | 1% | -1.4 | · | 3 | ·
8 | CCN(CC)C(=O)c1ccc(N)cc1 | 0.1 | -2 | 13 | 11 | 1.5 | 3% | -4.4 | -2.7 | 6 | 11
9 | CCC1CCc2sc(C(=O)OCC(=O)N(CCOC)c3c(N)n(Cc4ccccc4)c(=O)[nH]c3=O)cc2C1 (stereo not given) | -0.1 | -2 | 1 | 12 | 1.9 | -11% | ? | 0.5 | 10 | 5
10 | CC(=O)Oc1ccc(/C=c2\sc3ncnn3c2=O)cc1 | 0.2 | -3 | 1 | · | · | -4% | -0.3 | · | -33 | ·
11 | Nc1c2c(nc3ccccc13)N(c1ccccc1)CC2 | 0.3 | -3 | 10 | · | · | ? | -1.8 | · | -3 | ·
12 | O=C(Nc1nnc(C2CCCO2)s1)c1ccc(Br)cc1 (stereo not given) | 0.1 | 1 | · | 0 | -2.5 | -5% | · | -3.7 | · | 3
13 | Cn1cc(Cl)c(C(=O)OCC(=O)Nc2ccccc2)n1 | -0.7 | · | -1 | · | · | -5% | 1.2 | · | 11 | ·
14 | Cc1c(O)ccc2c(CN3CCN(C/C=C/c4ccccc4)CC3)cc(=O)oc12 | 0.5 | -16 | -1 | -5 | -6.2 | -2% | 52* | 2.4 | 50 | -8
15 | COc1ccc2cc(OC)c(C(=O)N3CCOCC3)cc2c1 | 0.7 | -5 | -1 | 19 | 3.0 | 11% | -14 | -1.4 | 3 | 13
16 | CN(CC(=O)Nc1ccc(Cl)c(C(F)(F)F)c1)C(=O)c1cnccn1 | -0.5 | -2 | · | 4 | -1.0 | · | · | -1.4 | · | 7
17 | O=C(Nc1ccc(Br)cc1)c1ccc(F)c(S(=O)(=O)N2CCN(c3ccccn3)CC2)c1 | -0.4 | 24 | ? | 14 | -4.5 | 0% | 1.9 | -1.8 | -13 | 11
18 | CCc1cccc(CC)c1NC(=O)CSc1nc2ccc(N3C(=O)C4C(C3=O)[C@H]3C=C[C@@H]4C3)cc2s1 (stereo not given in full) | 0.1 | 4 | -3 | -3 | 1.7 | 10% | 2.7 | 11 | -9 | -4
19 | CCCn1c(N)c(N2CCCCC2)c(=O)n(CC(=O)Nc2ccccc2)c1=O | 0.9 | -5 | -6 | · | · | 2% | -1.7 | · | -9 | ·
20 | C=CCn1cnc2c(nnn2-c2cc(C)cc(C)c2)c1=O | -0.2 | 4 | -4 | 7 | -0.7 | -1% | -0.7 | -1.2 | 9 | 5
21 | CC(C)=CCc1c(O)c(CC=C(C)C)c2c(c1O)-c1cc(O)c(O)cc1CC2 | -0.4 | -1 | ? | · | · | · | -0.5 | · | 36 | ·
22 | CC(=O)Nc1ccc(S(=O)(=O)NNC2=NS(=O)(=O)c3ccccc32)cc1 | -0.3 | -3 | -18 | 2 | 1.4 | -8% | 2.7 | -9.4 | -10 | 11
23 | CCCCCNC(=O)Cn1c(=O)c2c(ncn2CC(C)C)n(Cc2ccccc2)c1=O | -0.5 | 4 | 3 | 5 | 1.0 | · | -2.4 | -0.4 | 10 | 8
24 | COc1cccc(CNC(=O)c2cc3c(C)nc4ccccc4c3o2)c1 | -0.6 | 41 | 2 | -4 | 18 | -3% | 4.1 | -12 | 1 | -11
25 | Cc1cccc(NC(=O)c2ccc3c(c2)OCCO3)c1C | -0.4 | 3 | 2 | 1 | -2.5 | · | 2.2 | -3.7 | -11 | -12
26 | Cc1c(C(=O)C(=O)N2c3ccccc3CC2C)c2ccccc2n1C (stereo not given) | 0.8 | -5 | 28 | 18 | 2.3 | 2% | 2.2 | 3.5 | 10 | 16
27 | c1ccc(Nc2nc(N3CCOCC3)nc(N3CCOCC3)n2)cc1 | 0.8 | 3 | 16 | · | · | 8%&1% | -3.0 | · | 23 | ·
28 | CCOC(=O)c1c(C)[nH]c(C)c1S(=O)(=O)Nc1ccc(CN2CCCCC2)cc1 | 1.9 | -1 | -2 | 6 | -0.5 | · | 5.4 | 4.8 | 41 | 10
29 | COC(=O)C1CCN(c2cnccn2)CC1 | -0.4 | -6 | -16 | · | · | 2% | -4.5 | 0.1 | -17 | ·
30 | CC(C)c1ccc(CNCCCSc2ncccn2)cc1 | 0.8 | 0 | -16 | 10 | -0.3 | -8% | 6.4 | -0.8 | 71* | 5
31 | CCOC(=O)c1sc2nc(CC(=O)OC)nc(N(C)CCc3ccccn3)c2c1C | 0.8 | -2 | 45 | -7 | -1.9 | · | 0.8 | 1.2 | 20 | -6
32 | C/C(=N\NC(=O)c1n[nH]c2c1CCC2)c1ccco1 | -6.6 | 8 | -2 | 21 | 2.8 | · | ? | -0.1 | -6 | 17
33 | CCOc1cc(/C=N/NC(=O)c2cccc(S(=O)(=O)N3CCOCC3)c2)ccc1OCC(=O)N(C)C | -0.3 | · | 3 | 11 | -0.6 | 5% | 1.2 | -1.4 | -1 | 20
34 | CC(=O)Nc1ccc(NC(=O)C2CC(=O)N(C(C)C)C2)cc1 (stereo not given) | -0.2 | -7 | -2 | 22 | 1.8 | · | -3.1 | -5.5 | -23 | 15
35 | CCOC(=O)c1ccc(NC(C)=O)c([N+](=O)[O-])c1 | -0.1 | -3 | -11 | 6 | -1.6 | -11% | 0.7 | · | 10 | 2
36 | CC1=C(C)CC(C(=O)Nc2nc(C)cs2)C(C(=O)O)C1 (stereo not given) | 0.8 | -7 | 11 | 4 | 3.7 | · | -2.4 | -1.6 | -4 | 9
37 | COCCN(CCOC)C(=O)CCn1c(=O)oc2ccccc21 | -0.5 | 0 | 7 | · | · | 17% | -0.5 | · | -7 | ·
38 | COc1ccc(N2CC(C(=O)Nc3nnc(Cc4ccccc4)s3)CC2=O)cc1 (stereo not given) | 0.4 | -2 | 4 | 3 | -0.7 | · | 2.8 | -3.0 | -4 | 14
39 | Cc1ccc(C2C(C(=O)c3cccs3)=C(O)C(=O)N2c2nnc(C)s2)cc1 (stereo not given) | -2.0 | 2 | -1 | -24 | -9.8 | -18% | -0.8 | -0.8 | -12 | -16
40 | CN(C)c1ccc(C2N3CC4(C)CN2CC(C)(C3)C4O)cc1 (stereo not given) | 0.5 | -2 | -4 | 6 | -4.4 | 30% | 1.3 | -22 | -1 | 18
41 | COc1ccc(C(=O)Nc2nnc(-c3ccccc3)o2)cc1OC | 0.1 | -3 | -7 | · | · | 5% | 0.3 | · | -47 | ·
42 | CC(c1ccccn1)N(C)C(=O)c1ccc2nc(Cc3ccccc3F)oc2c1 (stereo not given) | -0.4 | 2 | 3 | 1 | 1.4 | -2% | 2.9 | -2.5 | -6 | 1
43 | Cc1cccc(Cl)c1NC(=O)N1CCN(c2ccnc3cc(Cl)ccc23)CC1 | 0.2 | 4 | -9 | -10 | 4.1 | -11% | 2.3 | 3.2 | 23 | -1
44 | C=CCn1c2ccccc2c2nnc(SCC(=O)OCN3C(=O)c4ccccc4C3=O)nc21 | 0.3 | -5 | -6 | · | · | ? | -5.3 | · | -4 | ·
45 | COc1ccccc1N1CCN(C2CCCN(C(=O)CC(F)(F)F)C2)CC1 (stereo not given) | 0.1 | 0 | 3 | 20 | 3.3 | · | ? | -1.1 | 4 | 18
46 | CCOCCCn1c(=S)[nH]c2cc(C(=O)N3CCN(C)CC3)ccc2c1=O | 0.2 | 0 | 3 | 5 | -2.2 | 0% | 3.8 | · | -1 | 6
47 | CCn1c(CSc2nc(C)cs2)nc2cc(S(=O)(=O)N(C)C)ccc21 | -0.2 | 0 | 1 | · | · | 0% | 1.8 | · | 18 | ·
48 | CCC(C)NC(=O)C1CCCN(S(=O)(=O)c2ccc3c(c2)CC(C)N3C(=O)C2CC2)C1 (stereo not given) | 1.2 | 0 | -15 | 3 | -2.5 | · | 7.2 | -5.9 | 7 | -3
49 | COC(=O)C(c1ccccc1)C1(O)CC(C)N(C)CC1C (stereo not given) | -0.3 | -7 | 1 | 17 | 1.8 | · | -3.4 | 1.3 | -11 | 14
50 | CCOc1ccccc1N1CCN(S(=O)(=O)c2ccc3c4c(cccc24)C(=O)N3)CC1 | 0.5 | -2 | 1 | · | · | 11% | -1.9 | · | 13 | ·
51 | O=C(/C=C/c1cccc([N+](=O)[O-])c1)NCCSCc1ccc(Cl)cc1 | 0.6 | 1 | -48 | -20* | 0.5* | 24% | 4.9 | -7.2 | 17 | -0.8*
52 | COc1ccc(C2NC(c3ccc(OC)c(OC)c3OC)C(C)C(=O)C2C)c(OC)c1OC (stereo not given) | 0.4 | 0 | 12 | · | · | 24% | -1.1 | · | -38 | ·
53 | Cc1c(C)c2c(OCC(=O)N[C@@H](C)C(=O)O)cc3c(c2oc1=O)CCC(C)(C)O3 | 0.5 | -4 | -3 | 2 | 0.9 | -5% | 1.1 | -1.3 | -2 | 1
